NPYLR7 ag – mosquito NPYLR7 agonism | HEK293T NPYLR7/Galpha15, GCaMP6s calcium fluorescence | activation, % at 10 µM | 270,000 compounds, 0.15% hits | AID 1259423; in the data active = activation above about 40%;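 note: 0% = vehicle and 100% = reference agonist at the receptor; some compounds past the cut are filed as inactive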
NPYLR7 ag max-min – recorded beside NPYLR7 ag, whose call it bears; activation, %; measured here: Max-Min RFU normalised activation; some inactives read as strong as hits;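 span of the calcium signal over five minutes; 0% = vehicle and 100% = native peptide agonist; compound fluorescence can raise it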
Starred values were filed as active, the others as inactive; i = inactive; & = joins results of further samples.

SMILES	NPYLR7 ag	NPYLR7 ag max-min
CN(c1ccccc1)N1CC(C(=O)NCCNc2cccc3ccccc23)CC1=O (stereo not drawn)	-9	-19
O=C(C1CCOCC1)N1CCOC(CCCc2ccccc2)C1 (stereo not drawn)	9	4
O=C(CCn1cnc2ccccc21)N1C[C@H](O)[C@@H](N2CCOCC2)C1	7	5
CCCN(CC#Cc1ccccc1)C(=O)c1cnc2ccccn12	-6	-11
Cc1nc(NCCNC(=O)c2ccncc2)cc(C(C)C)n1	3	13
CC(=O)NC(C)(c1ccccc1)c1nc(-c2cccc3cccnc23)cs1 (stereo not drawn)	5	1
CC(=O)Nc1ccc(OS(=O)(=O)c2cc(F)ccc2F)cc1	-4	-7
CCOC(=O)C1(CC2CC2)CCN(C(=O)c2cccc(-c3ccc(C)o3)c2)CC1	-3&14	-4&13
Cc1nc(CN2CCN(C(=O)c3cccc(NCc4cccs4)c3)CC2)no1	-3	-6
Cc1ccc(C(=O)Oc2cccc(-c3nc4cc(C)ccn4c3NC(C)(C)CC(C)(C)C)c2)cc1	8	12
CN1CC2(CCCN(C(=O)CN3CCOc4ccccc4C3)C2)OC1=O (stereo not drawn)	6	4
Cc1ccc2cc(C3(O)CCN(C(=O)[C@H]4CCCN4)CC3)ccc2n1	-3	-5
Cc1cccc(CNC(=O)N2CCC3(CCNCC3)C2)c1	7	4
Cc1ccc(N2C(=O)C3C(c4ccccc4)NN(Cc4ccccc4)C3C2=O)cc1 (stereo not drawn)	10	10
O=c1[nH]c(SCc2ccc(F)cc2)nc2c1cnn2CCO	8	7
Cn1c2ccccc2c2nnc(SCc3ccccc3)nc21	0	-4
CCOC(=O)c1c(SCC(=O)NCc2ccc(C)cc2)nc(=O)[nH]c1C	8	10
O=C(Cn1c(=O)n(-c2ccc(F)cc2)c(=O)c2ccccc21)NCc1cccc(C(F)(F)F)c1	3	12
Cc1ccc(NCN2C(=O)c3ccccc3C2=O)c(Br)c1	0	-4
O=C(c1ccc(Cl)cc1)N(Cc1ccco1)Cc1c(-c2ccc(F)cc2)noc1N1CCOCC1	-3	7
Fc1ccc(-c2n[nH]c(=S)n2CC2CCCO2)cc1 (stereo not drawn)	2	9
O=C(CCc1ccco1)N1CCc2c([nH]c3ccccc23)C1C1CCCCC1 (stereo not drawn)	-8	-15
COc1cc(-c2nc(C(N)=O)cs2)cc(OC)c1OC	-5	-7
CCC(C)NC(=O)COC(=O)c1cccc(Br)c1 (stereo not drawn)	-2	-5
O=S(=O)(Oc1cccc(CN(Cc2ccco2)S(=O)(=O)c2ccc(F)cc2)c1)c1cccc(C(F)(F)F)c1	0	4

Single records (already shown). Order of values: NPYLR7 ag | NPYLR7 ag max-min
Cc1ccc(NCN2C(=O)c3ccccc3C2=O)c(Br)c1 reads 0 | -4
CCC(C)NC(=O)COC(=O)c1cccc(Br)c1 (stereo not drawn) reads -2 | -5
O=C(CCn1cnc2ccccc21)N1C[C@H](O)[C@@H](N2CCOCC2)C1 reads 7 | 5
CCCN(CC#Cc1ccccc1)C(=O)c1cnc2ccccn12 reads -6 | -11
CN(c1ccccc1)N1CC(C(=O)NCCNc2cccc3ccccc23)CC1=O (stereo not drawn) reads -9 | -19

The main list resumes with the 3 entries that preceded the break.
SMILES	NPYLR7 ag	NPYLR7 ag max-min
COc1cc(-c2nc(C(N)=O)cs2)cc(OC)c1OC	-5	-7
CCC(C)NC(=O)COC(=O)c1cccc(Br)c1 (stereo not drawn)	-2	-5
O=S(=O)(Oc1cccc(CN(Cc2ccco2)S(=O)(=O)c2ccc(F)cc2)c1)c1cccc(C(F)(F)F)c1	0	4
COc1cccc(NC(=O)Cn2cc(OC)c(=O)cc2CN2CCN(c3ccccc3)CC2)c1	1	0
CCN1CCN(c2ccccc2NS(=O)(=O)Cc2ccccc2)CC1	0	16
CC(C(=O)NCc1ccccc1-n1ccnc1)n1cc(Cl)cn1 (stereo not drawn)	3	2
O=C(CCOc1ccc(Cl)cc1)N1CCOC(Cc2ccccc2)C1 (stereo not drawn)	8	14
Cc1nnnn1-c1ccc(F)c(NS(=O)(=O)c2ccccc2Br)c1	1	38
C=CCSc1ccccc1NS(=O)(=O)c1c(C)noc1C	0	8
CCOC(=O)c1cc(-c2ccc(N3CCN(C(=O)c4ccc(C#N)cc4)CC3)cc2)n(-c2cccc(F)c2)n1	22	11
CCCc1nnc(NCc2ccc(Cl)cc2)s1	7	11
COc1cccc(C(=O)N(Cc2c(-c3ccc(F)cc3)noc2N2CCN(C)CC2)CC2CCCO2)c1 (stereo not drawn)	8	6
C=CCNC(=O)Cn1nnc(C(NC(=O)c2ccccc2)C2CC2)n1 (stereo not drawn)	-3	-7
CC(C)CN(Cc1cccn1Cc1ccccc1Cl)C(=O)CN(CC(C)C)C(=O)c1ccc(-c2ccccc2)cc1	3	21
Cc1cc(C)n(C(C)CNS(=O)(=O)c2ccc(C)c(C)c2)n1 (stereo not drawn)	3	0
COC(=O)c1ccc(CSc2ncnc3c2nnn3Cc2ccc(Cl)cc2)o1	12	11
C=CCCC(=O)Nc1c(OC(=O)N(CC)CC)ccc2c1ccn2CCOCC	1	9
O=C(CCc1ccc(S(=O)(=O)N2CCOCC2)cc1)NCCCn1ccc2ccccc21	-2	9
COc1ccc(NC(=O)c2snnc2C)cc1NC(=O)c1ccccc1	2	-1
CCCN(C(=O)Cn1c(=O)c2c(ncn2C)n(C)c1=O)C1CCS(=O)(=O)C1 (stereo not drawn)	1	7
Cc1cccc2c1C(=O)NC1(CCN(Cc3ccco3)CC1)N2	5	16
O=S(=O)(NCc1ccccc1OC(F)F)c1ccccc1F	-5	-7
COc1ccc2nc(-c3ccc(C)c(NC(=O)Nc4cccs4)c3)cn2n1	-5	-5
Cn1c2ccccc2c(=O)c2c(=O)n(Cc3ccco3)c(C3CCCCC3)nc21	6	3
O=C(CCNc1nc(-c2cccc(Br)c2)nc2ccccc12)Nc1ccccc1F	-4	7
CCOC(=O)C1CCN(C(=O)CC(c2cccc(OC)c2)c2c[nH]c3c(CC)cccc23)CC1 (stereo not drawn)	9	18
CC(=O)Nc1cccc(NC(=O)CSc2nc3c(c(=O)n2-c2cc(C)cc(C)c2)SCC3)c1	-4	-8
Cc1ccc(-n2nnnc2SCC(=O)Nc2ccc3c(c2)CCC3)c(C)c1	7	8
(more compounds)
SMILES	NPYLR7 ag	NPYLR7 ag max-min
CCN(Cc1noc(C)n1)C(=O)c1cn(-c2ccccc2)nn1	-2	-4
COc1ccc(-n2nc(C(C)(C)C)cc2NC(=O)CN(C(=O)c2ccc(Br)cc2)C(C)C)cc1	4	14
CCOC(=O)C1(CCc2ccccc2)CCCN(C(=O)C2=CCCC2)C1 (stereo not drawn)	4	2
COc1ccc2oc(=O)n(C3CCN(C(=O)c4ccc5nonc5c4)CC3)c2c1	-9	2
Cc1ccc2nc(SCCN3C(=O)c4ccccc4S3(=O)=O)[nH]c2c1	-4	-4
CCOC(=O)CC(NC(=O)c1cnn(C)c1C)c1cccc(OC)c1 (stereo not drawn)	1	4
CC(N)=C(C#N)C(=O)COC(=O)CC12CC3CC(CC(C3)C1)C2	1	4
CC1CCCCC1NC(=O)C1CCC(CNc2c(N3CCCC3)c(=O)c2=O)CC1 (stereo not drawn)	6	2
CCc1nc2ccc(C(=O)Nc3cccc(OC)c3)cn2c1N(CC)CCN(C)C	-5	-10
Nc1ccc(S(=O)(=O)N2CCOCC2)cc1	4&9	4&7
COCCCN(CC(=O)N1CCc2sccc2C1c1ccccc1C)C(=O)CSc1ccccc1 (stereo not drawn)	15	20
Cc1ccccc1CCN1CCCC(CN(C)C(=O)c2cc(-c3ccccc3)no2)C1 (stereo not drawn)	0	-4
Cc1nc(-c2ccc(O)cc2)no1	1	-1
CCN(CC)C(=O)Oc1ccc2c(ccn2Cc2ccc(I)cc2)c1-c1ccc(C#N)cc1	9	-4
COc1ccc(Br)cc1-c1noc(C(F)(F)F)n1	1	-2
CC1ON=C(c2ccco2)N(C/C=C/c2ccccc2)C1=O (stereo not drawn)	6	4
COCCN(CC(=O)N(CCc1c[nH]c2ccccc12)Cc1ccccc1OC)S(=O)(=O)c1ccc([N+](=O)[O-])cc1	14	17
CCOC(C)c1ccc(-c2cncnc2)cc1 (stereo not drawn)	0	0
CCCCC1CCC(C(=O)Nc2c(C)nc3sccn3c2=O)CC1 (stereo not drawn)	11	-1
CC(C)(C)C(=O)NCc1ccc(Oc2ccccc2)nc1	9	10
COCCNc1nc(-c2ccccc2CO)c2sc(-c3ccccc3)cc2n1	7	1
O=C(CCNS(=O)(=O)c1ccc(Br)cc1)Nc1ccc2c(c1)CCO2	1	-1
O=C(CN(Cc1ccco1)C(=O)c1cccc(F)c1)Nc1cc(-c2ccccc2)nn1-c1ccccc1	5	5
CC(C)NC(=O)c1cc(-c2cccs2)n(-c2ccc(F)cc2)n1	15	9
O=C(N[C@@H]1CCCCC1NC(=O)C1CCCN(C(=O)CCc2ccccc2)C1)c1ccc(F)cc1 (stereo partly drawn)	-2	0
More results follow:
SMILES	NPYLR7 ag	NPYLR7 ag max-min
NC(=O)CN(CCC1CCCCC1)C(=O)c1nccn2ccnc12	3	2
CCc1nc2n(n1)C(=O)C(C(c1ccc(C)cc1)N1CCC(C)CC1)S2 (stereo not drawn)	0	25
O=C(COC(=O)C=Cc1ccc(Br)o1)NCCCN1CCCC1=O	2	8
O=S(=O)(c1ccc(C(F)(F)F)cc1Cl)N1CCN(c2c3c(nc4ncnn24)CCC3)CC1	0	11
Cc1nc(N2CCC(C(=O)N3CCCC(OCc4cccnc4)C3)CC2)nc2ccc(C(C)C)cc12 (stereo not drawn)	18	11
COc1cc(C=NNc2ncc(C(F)(F)F)cc2Cl)cc(OC)c1OC	-21	-25
CC1=NCCN1S(=O)(=O)c1cc(Cl)ccc1Cl	-2	-4
COCCN(CC1CN(Cc2ccccc2C(F)(F)F)CC1c1ccc(C)cc1)C(C)=O (stereo not drawn)	5	4
COc1ccc(S(=O)(=O)N2CCOCC2)cc1N=Cc1ccc2c(c1)OCO2	2	0
COc1ccc(CNC(=O)/C(C#N)=C/N2CCN(c3cccc(C)c3C)CC2)cc1	4	3
Cc1ccc(C(CNC(=O)c2nn(C)c3c2CCCC3)N(C)C)o1 (stereo not drawn)	-3	-4
COc1ccc(C)cc1NC(=O)c1cnc2cc(C)ccn2c1=O	6	20
COCCN1CCC(C(=O)N(C)Cc2n[nH]c3c2CCCC3)C1 (stereo not drawn)	9	5
CCc1cccc(C)c1NC(=O)Cn1cnc2sccc2c1=O	-3	-5
Cc1nc2ncnn2c(C)c1CCC(=O)N1CCCC(Nc2ccccc2)C1 (stereo not drawn)	5	3
CCC(=O)N1CCN(c2ccc(Cl)cc2NC(=O)c2cccs2)CC1	-1	5
CSC1CCCCC1NC(=O)c1cccnc1C (stereo not drawn)	0	-3
COCCN(CC(=O)N(CCc1c[nH]c2ccccc12)Cc1ccc(N(C)C)cc1)C(=O)c1ccc(C)c([N+](=O)[O-])c1	7	21
CCn1c(=O)c2c(nc3n(CC)c(C)c(C)n23)n(C)c1=O	-1	16
O=c1oc2ccccc2n1CCN1CCc2[nH]cnc2C1c1ccccn1 (stereo not drawn)	3&18	-3&9
Cn1nc(C(=O)Nc2ccnn2Cc2cc(Br)cs2)ccc1=O	3	10
Nc1c(C(=O)NC2CC2)sc2nc3c(c(-c4ccco4)c12)CCC3=Cc1ccco1	-1	-5
CCCn1cc(C(=O)N2CCN(c3ccccc3)CC2)c2nn(-c3ccccc3)c(=O)c-2c1	5	4
CNC(=O)[C@@H]1C[C@H]2CN(c3ccccc3)C(=O)c3cccc(c32)N1C(=O)c1cccs1	-3	0
O=C(CCc1ccco1)Nc1ccc2c(c1)OCCCO2	-6	-9
Later entries
SMILES	NPYLR7 ag	NPYLR7 ag max-min
O=C(c1ccco1)N1CCCN(Cc2nc(-c3ccc4c(c3)OCO4)no2)CC1	-2	-8
CCN(Cc1ccccc1)c1nc(-c2cccc(F)c2F)nc2ccccc12	0	8
O=C(CCCOc1cccc(Cl)c1Cl)N1CCN(C2CCOC2)CC1 (stereo not drawn)	7	6
O=C(O)C1CCN(c2cncc3nnnn23)CC1	-2	366
Cc1c(C(=O)OCc2ccc(Cl)cc2)nnn1-c1cccc(Cl)c1	-3	-9
Cc1cc2oc(=O)cc(C)c2cc1NC(=O)c1cnccc1C	1	-7
CN(Cc1ccc(Br)s1)C(=O)C1(c2ccc(F)cc2)CCCC1	0	i
Cc1nc2c(OCc3ccccc3)cccn2c1CC#N	-1	-26
CC(CCO)CNC(=O)c1cc(C(C)C)no1 (stereo not drawn)	5	6
COc1cc(=O)n2c(c1C(=O)NC(C)c1ccco1)CCN(Cc1cc3ccccc3s1)CC2 (stereo not drawn)	7	-5
CCc1nn2c(nnc3c(=O)n(Cc4cccnc4)ccc32)c1-c1ccc(Cl)cc1	11	9
O=C(Cc1ccc(F)cc1)NCC1CCN(c2nc(Cc3ccc(F)cc3)ns2)CC1	11	19
COc1ccccc1-c1cc2c(SCC(=O)Nc3c(C)cccc3C)nccn2n1	-3	-4
COc1ccc(NC(=O)CC(c2ccccc2)c2ccc(C)cc2O)cc1 (stereo not drawn)	10	7
Cc1nc(-c2ccc(NS(=O)(=O)C3=Cc4ccccc4CC3)cc2)cs1	8	3
C=CCn1c(SCc2ccc(C(=O)NCc3ccco3)cc2)nnc1-c1ccco1	17	20

Sorted by count of non-hydrogen atoms (rising): six of the compounds above.
SMILES	NPYLR7 ag	NPYLR7 ag max-min
CN(Cc1ccc(Br)s1)C(=O)C1(c2ccc(F)cc2)CCCC1	0	i
Cc1c(C(=O)OCc2ccc(Cl)cc2)nnn1-c1cccc(Cl)c1	-3	-9
COc1ccc(NC(=O)CC(c2ccccc2)c2ccc(C)cc2O)cc1 (stereo not drawn)	10	7
O=C(c1ccco1)N1CCCN(Cc2nc(-c3ccc4c(c3)OCO4)no2)CC1	-2	-8
COc1ccccc1-c1cc2c(SCC(=O)Nc3c(C)cccc3C)nccn2n1	-3	-4
O=C(Cc1ccc(F)cc1)NCC1CCN(c2nc(Cc3ccc(F)cc3)ns2)CC1	11	19

Compound activity as filed in PubChem BioAssay.

The list is partial, so the mix of outcomes need not match the whole.
